Screening data (PubChem)
HNF4A DNA FP – change in binding of human HNF4 alpha to DNA. P41235. HNF4a-FITC DNA binding, fluorescence polarization, 1 h. activity change, % at 10 µM. hit rate 0.3% among 360,000. AID 1224865; in the data active = activity change above about 30%, passing the limit was not always enough;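 note: controls were the assay level and a saturating level of protein; the project sought stronger binding though the title names inhibitors; some compounds called inactive have numbers as strong as hits; positive values seem to mean higher polarization but the record does not say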
ALR H2O2 inh – human ALR oxidase inhibition via reduced H2O2. P55789. hit rate 3.8% among 290,000. inhibition, % (test concentration not listed). purified ALR, DTT oxidation, H2O2 HRP-luminol luminescence;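 active = mean and each replicate at 75% or more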;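 note: stock transfer was 7.5 nL into about 7.5 µL; 0% = neutral wells and 100% = wells with inactivated enzyme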
Target sequence (P55789 whole entry, looked up): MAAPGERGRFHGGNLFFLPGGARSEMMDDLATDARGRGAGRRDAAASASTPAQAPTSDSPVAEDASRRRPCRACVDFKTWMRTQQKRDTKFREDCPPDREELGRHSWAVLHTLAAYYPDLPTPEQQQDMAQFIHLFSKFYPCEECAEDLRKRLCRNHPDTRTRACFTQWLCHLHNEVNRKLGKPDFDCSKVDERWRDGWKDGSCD
E coli growth – blocks Escherichia coli growth. OD600, 23 h; stronger effect = lower value. OD600 absorbance (concentration not given with the values). hit rate 0.21% among 330,000;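 active = OD600 absorbance below the run mean of sample wells minus 3.6 SD, in any replicate, cut at about 0.56 in these data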;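 note: stock transfer was 300 nL into about 60 µL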
UCH37 inh – blocks the human deubiquitinase UCH37. Q9Y5K5. purified proteasome/UCH37, Ub-AMC cleavage fluorescence. inhibition, % (test concentration not listed). hit rate 0.33% among 330,000. AID 588478;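 active = mean of two replicates above 20%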;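 note: 0% = compound-free wells with enzyme and 100% = wells lacking proteasome; stock transfer was 100 nL into about 20 µL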
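Assay system: Proteasome-bound UCH37. Buffer or medium: pH 7.4 Tris-HCl (50 mM) with ovalbumin, ATP-MgCl2, DTT. Incubation: 30 min preincubation with enzyme, 25 min cleavage at room temperature. Measured by: fluorescence, ex 355 nm, em 460 nm. Read-out basis: percent inhibition. Control set: wells without proteasome as full block, compound-free enzyme plus substrate as uninhibited.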
LANA-H2B inh – blocks KSHV LANA binding to histone H2A/H2B; cell-free LANA-H2A/H2B peptide, fluorescence polarization; inhibition, % (no concentration beside the values); hit rate 0.6% among 320,000; in the data active = inhibition mostly above about 10%, no sharp cut-off; inactive = mostly below about 6.7%;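 note: stock transfer was 7.5 nL into about 10 µL; 0% = median of vehicle wells and 100% = median of positive control wells; one replicate is shown; the record names a cut of 25% in any replicate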
Beta2AR agonist – activates human beta-2 adrenergic receptor causing internalization | hit rate 0.43% among 340,000 | response, % (no concentration beside the values) | Am2.2-beta2AR cells, FAP receptor internalization, flow cytometry; reference of the scale not given here | P07550 | AID 504454;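 active = response above a set limit, near 3 SD of response in nonfluorescent compounds, cut at about 42% in these data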;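 note: stock transfer was 100 nL into about 11 µL; a reference agonist was the positive control; negative values mostly stem from fluorescent compounds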
Target sequence (P07550 whole entry, looked up): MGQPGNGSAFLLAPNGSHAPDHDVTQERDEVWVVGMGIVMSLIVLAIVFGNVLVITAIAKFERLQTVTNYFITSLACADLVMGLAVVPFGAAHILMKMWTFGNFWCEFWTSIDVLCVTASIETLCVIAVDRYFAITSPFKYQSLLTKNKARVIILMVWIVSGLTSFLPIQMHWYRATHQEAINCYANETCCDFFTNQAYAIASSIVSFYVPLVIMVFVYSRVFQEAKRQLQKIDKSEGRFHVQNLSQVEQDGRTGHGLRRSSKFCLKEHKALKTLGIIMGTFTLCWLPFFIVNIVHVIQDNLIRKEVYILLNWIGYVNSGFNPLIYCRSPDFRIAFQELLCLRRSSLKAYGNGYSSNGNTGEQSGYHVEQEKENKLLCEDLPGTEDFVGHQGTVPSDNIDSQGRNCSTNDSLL
FGF22 binding – shifts melting point of recombinant human FGF22 | Q9HCT0 | recombinant FGF22 thermal shift, SYPRO orange fluorescence; percent of sucrose octasulfate shift, DMSO zero | calls only at 9.99 µM | hit rate 1.5% among 340,000;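 active = melting point raised past a set limit in the mean and every replicate; three in four hits are not shown here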
Target sequence (Q9HCT0 whole entry, looked up): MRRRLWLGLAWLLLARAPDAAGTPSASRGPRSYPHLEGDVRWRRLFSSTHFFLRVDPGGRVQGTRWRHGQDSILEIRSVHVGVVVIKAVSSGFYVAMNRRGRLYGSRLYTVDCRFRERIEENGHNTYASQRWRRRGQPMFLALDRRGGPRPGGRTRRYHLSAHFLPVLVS
Starred values were filed as active, the others as inactive; i = inactive; / = no result given.

SMILES	HNF4A DNA FP	ALR H2O2 inh	E coli growth	UCH37 inh	LANA-H2B inh	Beta2AR agonist	FGF22 binding
Cc1c2cnn(CC(=O)NCCN3CCOCC3)c(=O)c2c(C)n1Cc1ccc(F)cc1	-1.0	1	0.81	3.0	1.4	3	i
O=C(NCC1CCCO1)c1cc2c([nH]c3ccccc32)c(-c2cccc(Cl)c2)n1 (stereo unspecified)	4.6	2	0.81	-37	-6.2	1	/
CN(C)CCCOC(=O)C1c2ccccc2Oc2ccccc21	-4.2	0	0.76	-0.4	-0.1	-1	/
COCCOC(=O)c1c(C)oc2ccc(OC(=O)c3cccs3)cc12	3.7	-16	0.72	6.1	-1.5	1	/
CCOc1ccc(N2C(=O)CC(SC(=NC)Nc3cccc(F)c3)C2=O)cc1 (stereo unspecified)	0.4	-18	0.75	0.9	0.1	-8	/
COc1ccc(CCNC(=O)COC(=O)c2sc(C)nc2C)cc1	-0.9	/	0.68	0.1	/	-1	i
CCOc1ccc(CNc2nc3ccccc3n2CCN2CCOCC2)cc1	4.7	97*	0.71	4.8	-9.1	-5	/
CCOc1ccc(C(=O)NCC(=O)Nc2cc(C)ccn2)cc1OCC	2.9	-1	0.72	-1.0	5.9	0	i
O=C(O)c1ccc(NS(=O)(=O)c2ccc(N3C(=O)CCC3=O)cc2)cc1	-3.3	/	0.65	2.5	-2.8	4	i
COc1ccc(C2C(C(C)=O)=C(O)C(=O)N2c2ccc(Br)cc2)cc1 (stereo unspecified)	2.0	3	0.7	9.6	1.0	-3	i
Cc1ccc(/C(N)=N/OC(=O)c2ccc(C)cc2Cl)cc1	1.5	-5	0.7	6.5	-11	1	i
Cn1c(=O)c(C(=O)NNC(=O)c2ccccc2Cl)c(O)c2ccccc21	5.8	/	0.7	-2.4	3.3	-3	i
CC(C)(C)C(=O)N1CCN(c2nc3ccc(Cl)cc3s2)CC1	-2.1	/	0.64	3.7	-1.6	-6	i
CCN(C(=O)c1cccc(S(=O)(=O)N2CCc3ccccc32)c1)C1CCS(=O)(=O)C1 (stereo unspecified)	0.8	-3	0.64	2.7	-1.6	0	i
CC1CCc2sc(C(=O)N3CCC(C(N)=O)CC3)cc2C1 (stereo unspecified)	-3.3	/	0.66	1.9	4.0	3	i
COc1cc(OC)cc(OCC(O)Cn2ccnc2C)c1 (stereo unspecified)	-2.3	-29	0.7	-0.8	-5.2	-1	/
O=C(CN(c1cccc(Cl)c1)S(=O)(=O)c1ccccc1)NN=C1CCCC1	0.4	-7	0.7	1.1	7.5	-6	i
CCOc1cc(C(=O)OCC(=O)Nc2cccc(S(=O)(=O)NC3=NCCCCC3)c2)cc(OCC)c1OCC	-0.2	3	0.64	1.6	-4.6	3	i
CN(CC(=O)Nc1cccc(F)c1)C(=O)c1ccc(OCC2CCCO2)cc1 (stereo unspecified)	0.3	-2	0.74	-1.5	-0.6	-5	i
N#CCCn1nc(-c2ccc([N+](=O)[O-])cc2)cc1Nc1ccccc1NC(=O)C(F)(F)F	-0.1	21	0.7	6.1	0.5	7	/
COc1cc2c(cc1NC(=O)CSCC(=O)O)oc1ccccc12	-0.3	-11	0.68	3.0	3.6	11	/
Cc1cc(C)c2cc(C(=O)N3CCC(Cc4ccccc4)CC3)[nH]c2c1	1.4	/	0.71	3.3	4.7	-1	i
CCN(CC)C(=O)[C@H]1C[C@H](CC(=O)NCC23CC4CC(CC(C4)C2)C3)C(=O)N2CCc3c([nH]c4ccc(Cl)cc34)[C@]12C	0.3	/	0.73	-0.2	/	-3	i
CCC(=O)N(Cc1cc(=O)[nH]c2ccccc12)C1CCCCC1	-3.1	/	0.69	3.1	1.1	-4	/
CC(C)NCCCOc1ccc(C(C)(C)c2ccccc2)cc1	-2.4	-12	0.69	1.1	-3.9	-6	/

Compounds above that contain a furan ring, fused or not, in the order listed:
SMILES	HNF4A DNA FP	ALR H2O2 inh	E coli growth	UCH37 inh	LANA-H2B inh	Beta2AR agonist	FGF22 binding
COCCOC(=O)c1c(C)oc2ccc(OC(=O)c3cccs3)cc12	3.7	-16	0.72	6.1	-1.5	1	/
COc1cc2c(cc1NC(=O)CSCC(=O)O)oc1ccccc12	-0.3	-11	0.68	3.0	3.6	11	/

Further results.
SMILES	HNF4A DNA FP	ALR H2O2 inh	E coli growth	UCH37 inh	LANA-H2B inh	Beta2AR agonist	FGF22 binding
O=c1ccc2cc3ccoc3cc2o1	2.1	/	0.69	-14	-0.3	-4	i
CC1Cc2ccccc2N1C(=O)CN1CCC(n2nnc3cc(C(F)(F)F)ccc32)CC1 (stereo unspecified)	1.6	-11	0.71	1.6	1.7	-5	/
O=C(NC1CCN(Cc2ccccc2)CC1)c1cccc(NS(=O)(=O)c2ccc(Br)cc2)c1	5.3	/	0.66	3.9	/	12	i
Cc1nn(Cc2ccccc2)c(Cl)c1/C=N/NC(=O)CNc1cccc(C(F)(F)F)c1	-0.7	8	/	/	-1.6	-1	/
COc1ccccc1NC(=O)O/N=C(\N)c1ccccc1	3.0	27	0.72	-0.6	0.3	-3	i
COc1ccc(N2CCN(C(CNC(=O)CC(C)(C)C)c3ccc4c(c3)OCO4)CC2)cc1 (stereo unspecified)	2.1	82*	0.69	2.5	-0.3	3	i
CCCCS(=O)(=O)C1CCS(=O)(=O)C1 (stereo unspecified)	0.5	-4	0.8	1.1	-2.7	1	/
Cc1ccccc1NC(=O)Nc1cc(-c2ccccc2)nn1C	2.5	-32	0.69	4.6	2.2	-2	i
CCCCOC(=O)/C(=C\c1ccc([N+](=O)[O-])o1)NC(=O)c1ccccc1	4.7	0	0.75	7.1	3.7	-2	/
O=C(Nc1ccc(N2CCOCC2)cc1)c1cccc(S(=O)(=O)N2CCCCCC2)c1	6.4	-5	0.72	1.9	-0.6	-5	i
O=C(NN=C1CCCC1)c1cc(-c2ccc(F)cc2)nc2ccccc12	-5.9	/	0.72	2.8	-2.5	-18	i
CC1Cc2ccccc2N1S(=O)(=O)c1cccc(C(=O)c2nccn2C)c1 (stereo unspecified)	-2.6	-20	0.69	6.4	-4.3	6	/
CCOC(=O)[C@H]1[C@H]2COc3ccc(Br)cc3[C@@H]2N2C(=O)CN(Cc3ccc(C)cc3)C(=O)[C@@]12C	5.7	-4	/	1.9	3.3	7	i
COc1ccc(CNC(=O)c2noc(C(C)C)c2[N+](=O)[O-])cc1	-3.3	-1	0.7	5.0	7.3	3	/
COc1cccc(/C=C/C(=O)NCc2cn3cc(Cl)ccc3n2)c1OC	1.0	3	0.71	1.3	-7.0	-7	i
CCOC(=O)N1CCN(C(c2ccc(F)cc2)c2sc3nc(C)nn3c2O)CC1 (stereo unspecified)	-3.6	-2	0.71	1.7	-1.9	5	i
CCN(CC(=O)Nc1c(F)cccc1F)C(=O)/C=C/c1ccc(C)o1	-1.0	-36	0.63	3.5	5.5	-5	i
O=C(CCC(=O)NNC(=O)c1ccc(Cl)cc1Cl)NCc1ccccc1	3.8	-3	0.68	5.4	0.2	-1	i
COc1ccccc1NC1=C(Cl)C(=O)N(c2ccccc2)C1=O	2.9	/	0.71	2.0	-0.2	-4	/
NC(=O)COC(=O)c1oc2ccccc2c1CSc1ccc(Cl)cc1	6.1	6	0.67	4.5	-5.4	4	i
COc1ccc(C(=O)N(Cc2ccco2)Cc2cccs2)c(O)c1	-0.7	/	0.68	0.6	1.6	2	/
COC(=O)COc1cc2ccccc2cc1C(=O)Nc1ccccc1	2.3	-3	0.69	0.1	5.4	20	i
O=C(Nc1cc(S(=O)(=O)N2CCOCC2)ccc1N1CCCC1)c1ccc(F)cc1	0.6	/	0.73	6.6	1.1	9	i
COc1ccc(CNC(=O)C(=O)NCc2ccncc2)cc1	0.8	-12	0.72	0.9	0.4	-11	i
Cc1cccc(/C=N/Nc2cc(N3CCOCC3)nc(N3CCOCC3)n2)c1	-1.1	2	/	/	-0.1	27	i
The results go on.
SMILES	HNF4A DNA FP	ALR H2O2 inh	E coli growth	UCH37 inh	LANA-H2B inh	Beta2AR agonist	FGF22 binding
CN(C)c1ccc(/C=N/NC(=S)NCc2ccco2)cc1	16	98*	/	/	-1.2	-3	i
O=C(Cc1ccccc1)NNc1c2ccccc2nc2ccccc12	0.3	98*	0.69	6.8	4.1	-10	i
Cc1c(C(=O)NCc2ccco2)oc2ccc(Br)cc12	0.8	/	0.7	4.3	/	4	i
O=C(COC(=O)CCN1C(=O)c2cccc([N+](=O)[O-])c2C1=O)NC1CCS(=O)(=O)C1 (stereo unspecified)	-4.2	/	0.68	-3.6	/	-2	i
O=C(C[n+]1ccc(/C=N/O)cc1)NCc1ccccc1	1.4	-19	/	/	0.8	9	i
O=C(NCC1CCCO1)C1CCN(C2CCN(C(=O)Cc3ccsc3)CC2)CC1 (stereo unspecified)	4.0	-6	0.72	-0.2	-3.1	0	i
CCC(C)N(NC(C)=O)c1nc(Cl)nc(NC(C)(C)C)n1 (stereo unspecified)	1.5	-4	0.72	0.9	0.8	9	/
Cc1ccc(SCC(=O)N2CCOCC2)cc1	0.8	-11	0.72	4.8	-4.7	-1	/
COC(=O)COc1cccc2c(=O)n(CC(=O)NCCc3ccc(OC)c(OC)c3)ccc12	-1.3	14	0.78	3.6	-2.1	3	i
O=C(CCC1CCCN(Cc2ccc3c(c2)CCO3)C1)NCc1ccc(F)c(F)c1 (stereo unspecified)	-0.5	4	0.69	4.7	3.6	-5	i
Cc1cc(C)c(NC(=O)CS(=O)CC(=O)Nc2ccc(N3CCOCC3)cc2)c(C)c1 (stereo unspecified)	-0.7	4	0.68	1.4	-1.4	-12	i
CCCN(CCC)CCCNC(=O)CNC(=O)c1nn(-c2ccc(OC)cc2)c(=O)c2ccccc12	1.3	/	0.7	1.5	4.9	9	i
O=C(NC1(C(F)(F)F)N=C2SCCN2C1=O)c1cccnc1 (stereo unspecified)	0.1	-9	0.68	0.0	0.3	-8	i
COc1ccc(C(=O)N(CN2CCCC2=O)c2ccccc2OC)cc1OC	1.0	-12	0.74	5.3	2.4	-5	/
COc1ccccc1NC(=O)C1=C(C)Nc2nc(-c3cccnc3)nn2C1c1ccccn1 (stereo unspecified)	2.8	/	0.7	4.4	/	-17	i
CCOc1ccccc1C(=O)N1CCN(C(c2ccccc2)c2ccccc2)CC1	2.1	6	0.67	1.9	0.2	-5	/
COc1cc(C(=O)OC(C)C(=O)NC2CCCCC2C)c([N+](=O)[O-])cc1OC (stereo unspecified)	2.1	-6	0.57	3.7	-13	6	i
COc1ccc2[nH]c(C(=O)Nc3ncc(C)cc3Br)cc2c1	-0.8	-23	0.61	-13	-3.1	1	i
COc1cccc(CN2CC(C(=O)N(C)CCCC3CCCC3)CCC2=O)c1 (stereo unspecified)	-0.1	-5	0.67	1.3	0.1	1	i
Cc1ccnc(NC(=O)/C=C/c2cccs2)c1	-0.8	3	0.69	7.9	-1.8	-11	/
O=C(NCc1ccoc1)c1ccc(NC(=O)c2ccccc2Cl)cc1	0.3	0	0.71	3.1	3.8	-4	/
CC1CCC2(CC1)NC(=O)N(NC(=O)CCl)C2=O (stereo unspecified)	1.1	-2	0.68	2.6	1.7	3	i
CC1=C(C(=O)OCC2CCCCC2)C(c2ccc(O)cc2)NC(=O)N1 (stereo unspecified)	-1.8	57	0.66	1.7	1.4	-17	i

One compound at a time, as listed above. Values in the order: HNF4A DNA FP	ALR H2O2 inh	E coli growth	UCH37 inh	LANA-H2B inh	Beta2AR agonist	FGF22 binding
Entry for Cc1ccc(SCC(=O)N2CCOCC2)cc1 → 0.8	-11	0.72	4.8	-4.7	-1	/
Entry for CCCN(CCC)CCCNC(=O)CNC(=O)c1nn(-c2ccc(OC)cc2)c(=O)c2ccccc12 → 1.3	/	0.7	1.5	4.9	9	i
Entry for COc1ccccc1NC(=O)C1=C(C)Nc2nc(-c3cccnc3)nn2C1c1ccccn1 (stereo unspecified) → 2.8	/	0.7	4.4	/	-17	i
Entry for CC1=C(C(=O)OCC2CCCCC2)C(c2ccc(O)cc2)NC(=O)N1 (stereo unspecified) → -1.8	57	0.66	1.7	1.4	-17	i
Entry for COc1ccc2[nH]c(C(=O)Nc3ncc(C)cc3Br)cc2c1 → -0.8	-23	0.61	-13	-3.1	1	i

The list is partial. The share of hits here may be higher or lower than overall.
